Assay outcomes deposited in PubChem BioAssay by PCMD.
Calb biofilm kill: mixtures killing C. albicans biofilm | actives 0.02% (n = 120,000) | C. albicans biofilm persisters + clotrimazole, fluorescence viability; primary screen in compound mixtures of four per well | inhibition, % at 7.6 µM | AID 1242;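 active = inhibition above 30.3% in the primary screen of four-compound pools, then above 30% when the compound was retested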;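 note: compounds exposed to preformed 24 h biofilms for 48 h; the number belongs to the whole pool; some results filed as inactive read as strong as hits; inactives centre near 12; 0% = biofilm with clotrimazole alone and 100% = kill control; retested singly at about 60 µM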
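Incubation: 24 h biofilm formation, then 48 h compound exposure, 37 °C | Material: C. albicans biofilms | Buffer or medium: RPMI/MOPS medium, pH 7.0 | Measured by: 2-h Alamar Blue fluorescence, 535/590 nm excitation/emission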
* = called active by the depositor.

SMILES	Calb biofilm kill
CCN(CC)S(=O)(=O)c1cc(C(=O)OCC(=O)NC(=O)c2cccn2C)ccc1C	22
O=C(CNS(=O)(=O)c1ccccc1)NCC(=O)OCc1ccccc1F	11
COC(=O)C1=C(C)OC(N)=C(C#N)C1c1ccco1 (centres undefined)	7
CCOC(=O)c1cc2c(=O)n3cccc(C)c3nc2n(CC(C)C)c1=NC(=O)c1ccco1	25
CCCNC(=S)N(Cc1ccccc1)Cc1nc2ccccc2c(=O)[nH]1	19
Cc1ccc(SCC(=O)c2ccc(CC(=O)O)s2)cc1	23
CCOC(=O)C1=C(N)Oc2cc(O)ccc2C1c1cccc([N+](=O)[O-])c1 (centres undefined)	-5
CC(=O)Nc1ccc(S(=O)(=O)N2c3ccccc3NC(=O)CC2C)c(Cl)c1 (centres undefined)	15
Cc1ccc(-c2nc(N)n(S(=O)(=O)c3ccc(C)cc3)n2)cc1	5
Cc1ccc(Oc2nc(-c3ccccn3)nc3ccccc23)cc1	14
Cc1cc(NC(=O)c2cc3cccc([N+](=O)[O-])c3[nH]2)ccc1F	16
Cc1ccc(S(=O)(=O)N2CCOCC2)cc1NC(=O)COC(=O)c1n[nH]c(=O)c2ccccc12	29
COc1ccc(S(=O)(=O)N2CC(O)C[C@H]2C(=O)OCC(=O)N2CCCCCC2)cc1 (some centres undefined)	18
CNS(=O)(=O)c1cccc(C(=O)OCC(=O)Nc2ccc(N3CCCCC3)cc2)c1	14
COCCCn1nnnc1SCC(=O)N1c2ccccc2CC1C (centres undefined)	16
CCN(CC)S(=O)(=O)c1ccc(N2CCOCC2)c(NC(=O)c2ccc(C#N)cc2)c1	5
C/C(=N\NC(=O)c1nn(C)c(C)c1Br)c1ccc(NC(=O)c2ccccc2F)cc1	15
O=C1/C(=C/C=C/c2ccco2)SC(=S)N1NS(=O)(=O)c1ccccc1	3
CCCCN(C(=O)CC(c1ccccc1)c1ccccc1)c1c(N)n(CCC)c(=O)[nH]c1=O	16
CCn1c(C)[n+](Cc2ccccc2)c2ccc(Cl)cc21	8

The final four entries of the part before are carried over, then new ones follow:
SMILES	Calb biofilm kill
C/C(=N\NC(=O)c1nn(C)c(C)c1Br)c1ccc(NC(=O)c2ccccc2F)cc1	15
O=C1/C(=C/C=C/c2ccco2)SC(=S)N1NS(=O)(=O)c1ccccc1	3
CCCCN(C(=O)CC(c1ccccc1)c1ccccc1)c1c(N)n(CCC)c(=O)[nH]c1=O	16
CCn1c(C)[n+](Cc2ccccc2)c2ccc(Cl)cc21	8
CN1CCC(=NNC(=O)c2ccc(N(Cc3ccc(Cl)cc3)S(C)(=O)=O)cc2)CC1	19
CCOC(=O)C1=C(C)NC(C)=C(C(=O)OCC)C1c1ccc(Br)o1	9
COC(=O)C(C(=O)OC)C(C(C)C)C(C(=O)OC)C(=O)OC	18
O=C(NCCc1ccccc1)C1c2ccccc2C(=O)N1Cc1cccs1 (centres undefined)	15
CCOC(=O)c1c(NC(=O)CN2CCCc3ccccc32)sc(C(C)=O)c1C	13
CN(C)c1ccc(C(=O)OCC(=O)N2CCOCC2)cc1	10
COc1ccccc1C(=O)Nc1ccc(S(=O)(=O)NC2=NCCCCC2)cc1	10
CCOC(=O)c1cc2c(=O)n3ccccc3nc2n(CCOC)c1=NC(=O)c1c(-c2c(F)cccc2Cl)noc1C	18
CCOC(=O)C1C(c2ccccc2)NC(=S)NC1(C)O (centres undefined)	10
COc1cc(/C=C2\SC(=S)N(CCC(=O)Nc3ccccc3)C2=O)cc(OC)c1OC	-2
COc1ccc(-c2cc(C(F)(F)F)c(C#N)c(=O)[nH]2)cc1	25
NC(=O)c1cccnc1Nc1cccc([N+](=O)[O-])c1	17
CC(C)(C)NC(=O)c1ccc2c3c(cccc13)CC2	8
CCOC(=O)N1CCN(C(=O)CSc2ccc3nnc(-c4ccncc4)n3n2)CC1	9
COc1ccc(CC(=O)N(C)C2CCCCC2)cc1S(=O)(=O)N1CCOCC1	6
CC(=O)N1Cc2cc([N+](=O)[O-])ccc2Oc2ccccc21	6
O=C(Nc1ccc(S(=O)(=O)NCC2CCCO2)cc1)c1ccccc1 (centres undefined)	1
O=C(c1cccc(Cl)c1)N1CCC(=O)N(C(COCc2cccc(Cl)c2)Cc2ccccc2)CC1 (centres undefined)	6
O=C(OCC(=O)N1CCc2ccccc21)c1c2c(nc3ccccc13)CCCCC2	8
Cc1cccc(Nc2nc(N)c([N+](=O)[O-])c(NCCO)n2)c1	49
COc1ccc(C(=O)NC(=S)Nc2ccc(N3CCCC3)cc2)cc1OC	21
CCCCC1(CO)C(=O)N(c2ccccc2)N(c2ccccc2)C1=O	39
O=C(Nc1cccc2ncccc12)c1ccc(Br)c([N+](=O)[O-])c1	20
Cc1cc(C)c(C)c(C(=O)COC(=O)CNC(=O)CN2C(=O)c3ccccc3C2=O)c1C	6
N=c1c2c3c(sc2ncn1Cc1ccco1)CCCCC3	13
CN(C)CCCN(C(=O)c1ccc(N2C(=O)CCC2=O)cc1)c1nc2c(F)cccc2s1	14
CCN1CCCC1CNC(=O)CCc1nnc(CCC2CCCCC2)o1 (centres undefined)	10
Cc1ccc(C(=O)NNC(=O)CSc2nc(N)cc(N)n2)cc1	15
CCN1CCN(C(=O)/C=C/c2ccc3c(c2)OCO3)CC1	8
O=C(NCC1CCCO1)C1CCN(C2CCN(C(=O)C3CCCCC3)CC2)CC1 (centres undefined)	8

A different layout for some results above:
Cc1cc(C)c(C)c(C(=O)COC(=O)CNC(=O)CN2C(=O)c3ccccc3C2=O)c1C
  Calb biofilm kill = 6
N=c1c2c3c(sc2ncn1Cc1ccco1)CCCCC3
  Calb biofilm kill = 13
CN(C)CCCN(C(=O)c1ccc(N2C(=O)CCC2=O)cc1)c1nc2c(F)cccc2s1
  Calb biofilm kill = 14
CCN1CCCC1CNC(=O)CCc1nnc(CCC2CCCCC2)o1 (centres undefined)
  Calb biofilm kill = 10

Going on with the list:
SMILES	Calb biofilm kill
CCn1nc(C)c(Br)c1-c1nc(CS(=O)(=O)c2ccc(F)cc2)no1	14
O=C(CSc1nc2ccccc2o1)NC1CCCC1	19
CN(C(=S)Nc1ccc(Oc2ccccc2)cc1)C1CCCCC1	8
CN(C)CC#CCOC(c1ccccc1)c1ccccc1	20
Cc1ccc(SCC(=O)NC2CCS(=O)(=O)C2)cc1 (centres undefined)	13
Cc1nc(Cl)c(C(=O)NC(C)(C)C)c(C)c1Cl	13
CCOc1ccc(Cc2noc3c2C(=O)CCC3)cc1OCC	15
CN1CCCN(C(=O)c2cc(-c3cccc4ccccc34)nc3ccccc23)CC1	48
O=C(O)c1cc(N2C(=O)C3CCCCC3C2=O)ccc1NCc1cccnc1 (centres undefined)	6
CCn1cc(CNC(=O)c2cccc([N+](=O)[O-])c2)cn1	-5
CCC(NC(=O)NC1CCCCC1)c1ccccc1 (centres undefined)	13
Cn1c(N2CCOCC2)c(/C=N/OC(=O)c2cccnc2Cl)c2ccccc21	14
COc1cc(C(=O)c2ccccc2)c(OC)cc1C(=O)Nc1ccc(O)cc1	4
S=c1[nH]c2cc(Br)cnc2[nH]1	9
Cc1ccc2nc(CSc3nnc(-c4ccncc4)n3C)cc(=O)n2c1	8
Cc1ccc(/C=N/Nc2ncnc3nc[nH]c23)cc1	25
COc1ccc(CCC(=O)OC(C)C(=O)c2ccc(C)cc2)cc1 (centres undefined)	9
O=C(c1cccc(Br)c1)N1CCN(C(=O)c2cccc(Br)c2)CC1	6
COc1ccc(S(=O)(=O)Cc2ccc(C(=O)NCCc3cc(OC)ccc3OC)o2)cc1	5
CN(C)c1nnnn1Cc1ccccc1	21
CCOC(=O)N1CCN(C(=O)c2ccc(OC)cc2)CC1	11
CCOC(=O)c1sc2ccc(S(=O)(=O)N3CC(C)CC(C)C3)cc2c1N (centres undefined)	14
CC[n+]1ccc2cc(OC)c(OC)cc2c1Cc1ccc(OC)c(OC)c1	15
O=C(COC(=O)c1cccnc1)NC1CCCc2ccccc21 (centres undefined)	5
CCC(=O)N(Cc1ccco1)Cc1cc2cc3c(cc2[nH]c1=O)OCO3	-3
C=CCC1(C)C(=O)N(c2ccccc2)c2ccccc21 (centres undefined)	12
Cc1[nH]c2ccccc2c1/C=N/NC(=O)c1cc(C(C)C)[nH]n1	7
Cc1ccc(/C=N/NC(=O)c2ccc(Cn3cc([N+](=O)[O-])cn3)o2)cc1	10
Cc1cc(C)c(C)c(Oc2ncnc(N)c2[N+](=O)[O-])c1	8
COc1ccc(Nc2nc(-c3cccs3)nc3ccccc23)cc1	13
CC(=O)N1CCN(CC(=O)Nc2cc(S(=O)(=O)N3CCOCC3)ccc2C)CC1	19
O=c1c2ccccc2c(C=NCCCN2CCOCC2)c(O)n1Cc1ccc2c(c1)OCO2	13
Cc1ccc(NCC(=O)N=Nc2c(O)[nH]c3ccc([N+](=O)[O-])cc23)cc1	5
CCNC(=S)Nc1ccc(Cl)cc1Cl	11
Cc1cc(-c2n[nH]c(=S)n2/N=C/c2ccc(C)o2)n[nH]1	26
O=C(COc1ccccc1)NCc1nnc2c3ccccc3c(-c3ccccc3)nn12	5
Cc1cnc(C(=O)NCC(c2ccccc2)c2ccccc2)cn1	16
CC1N(C)c2cccc3cccc(c23)N1C	9
CC(=O)Oc1ccc([N+](=O)[O-])cc1N1C(=O)c2ccccc2C1=O	17
O=C(O)c1c2c(nc3ccccc13)CCCCC2	14
Cc1ccc(N2C(=O)CC(Cc3cc(C)cc(C)c3)C2=O)cc1 (centres undefined)	13
O=C(N=Nc1c(O)[nH]c2ccc([N+](=O)[O-])cc12)c1cc(-c2ccccc2Cl)nc2ccccc12	25
O=C(CN1C(=O)c2ccccc2S1(=O)=O)Nc1cccnc1	6
CC(C)CC(=O)NC(=S)NNC(=O)c1cccc([N+](=O)[O-])c1	5
Fc1cccc(CN2CCN(C(=S)NCCc3ccccc3)CC2)c1	10
Cc1nn(Cc2ccccc2)c(Cl)c1/C=N/NC(=O)c1cccnc1	5
CC1=CC=CC2=N/C(=N\S(=O)(=O)c3ccc(F)cc3F)c3ccccc3CN12	14
COc1cc(/C=C/C(=O)O)cc(S(=O)(=O)Nc2ccc3c(c2)OCO3)c1OC	14
COC(=O)c1ccc(NC(=O)CN(c2ccc3c(c2)OCO3)S(C)(=O)=O)cc1	6
Cc1ccc(/C=C2\SC(=S)N(c3cccnc3)C2=O)cc1	6
(further entries)
SMILES	Calb biofilm kill
CC1(C)CC(=O)C(CC(=O)Nc2cc(C(F)(F)F)ccc2Cl)C(=O)C1	6
N=C1C(=O)OCC1c1ccccc1NC(=O)c1ccc(F)cc1 (centres undefined)	-5
O=C(O)CCCNC(=O)CCCNC(=O)C(c1ccccc1)c1ccccc1	20
O=C(/C=C/c1ccccc1Cl)c1ccccc(=O)c1O	11
O=C(Nc1cccc([N+](=O)[O-])c1)C1CC(=O)N(C2CCCCC2)C1 (centres undefined)	21
Cc1ccc(Nc2c(F)c(F)c(F)c(F)c2C(=O)O)cc1	6
CC(C(=O)N(C)Cc1ccccc1)N1CCN(C/C=C/c2ccccc2)CC1 (centres undefined)	30
O=C(NNc1ccccc1)C(CCO)C(=O)NNc1ccccc1	17
Cc1ccc(S(=O)(=O)n2nc(C)c(C#N)c2N)cc1	18
Cc1ccccc1CC1(CO)CCCN(Cc2nc(-c3cccs3)oc2C)C1 (centres undefined)	9
O=C(NCc1ccccc1Cl)C(=O)c1c[nH]c2ccccc12	-1
Cc1ccc(OCc2nnc(N)s2)cc1C	10
Cc1cccc(NC(=O)CSc2nc(C)c(Cc3ccccc3)c(=O)[nH]2)c1C	14
CCn1c(SCC(=O)Nc2ccc3[nH]c(=O)[nH]c3c2)nnc1-c1ccccc1	26
O=C(O)c1ccc(S(=O)(=O)c2ccc3c(c2)C(=O)N(c2ccc(O)cc2)C3=O)cc1	10
COc1ccc(S(=O)(=O)N(C)C)cc1NC(=O)COC(=O)c1nn(C)c(=O)c2ccccc12	14
CC1CN(c2snnc2C=C2C(=O)OC(C)(C)OC2=O)CC(C)O1 (centres undefined)	9
O=C1/C(=C/c2cccnc2)SC(=S)N1N1CCOCC1	19
O=C1N/C(=N/N=C/c2ccccc2O)SC1Cc1ccc(F)cc1 (centres undefined)	14
N#CCCn1[nH]c(-c2ccccc2)cc1=O	15
COc1ccc(Nc2nc(N)nc(CSc3nnc(C)s3)n2)cc1	5
CCCCC(=O)Nc1ccc(C(=O)NCCc2ccc(S(N)(=O)=O)cc2)cc1	19
Nc1nonc1-n1nnc(C(=O)N/N=C/c2ccc(OCc3ccc(F)cc3)cc2)c1COc1ccccc1	17
C/C(CCC1CC(C)OC1=O)=N\NC(N)=O (centres undefined)	25
COc1ccc(CCNC(=O)CN(c2cc([N+](=O)[O-])ccc2OC)S(C)(=O)=O)cc1OC	14
O=C(O)c1cccc(Nc2ncnc3sccc23)c1	16
CC(C)(C)c1ccc2c(c1)OC(C(=O)N/N=C\c1ccccn1)CO2 (centres undefined)	16
O=C(Cc1noc2ccccc12)NNC(=S)Nc1ccc(Cl)cc1	20
O=C(Nc1ccc(Cl)cc1F)c1ccccc1Br	9
O=C(Nc1ccc(N2CCCC2)c(Cl)c1)c1cccs1	13
Cc1cc(C)c(OCCN(C)C)c(Cl)c1	12
O=C(Nc1cccc(Br)c1)c1ccc(Cl)c(S(=O)(=O)N2CCOCC2)c1	9
O=[N+]([O-])c1c(C(Cl)Cl)nn(-c2ccc(Cl)cc2)c1N1CCCCC1	11
O=C(CSc1cccc[n+]1[O-])c1cc(Cl)ccc1Cl	13
Cc1cccc(C(=O)NNC(=O)Nc2ccccc2)c1	21
COc1ccc(C(=O)O)cc1S(=O)(=O)NC(C)(C)C	16

Some of the compounds tested, so the mix of outcomes need not match the whole.
